Compound activity as filed in PubChem.
MLL AF4-AF9 inh: MLL-AF4/AF9 protein interaction inhibition; P42568; AlphaScreen, biotin-AF4 peptide binding to FLAG-AF9; inhibition, % at 10 µM; hit rate 0.47% among 350,000;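 active means every replicate reaching a set inhibition limit, whatever the replicate mean, cut at about 25% in these data; inconclusive means mean inhibition reaches that limit but some replicates miss it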;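 further: 0% = plate neutral control median and 100% = total signal loss; the record names both 10 and 1 µM as test concentration; the first replicate is given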
Target sequence (P42568 whole entry, looked up): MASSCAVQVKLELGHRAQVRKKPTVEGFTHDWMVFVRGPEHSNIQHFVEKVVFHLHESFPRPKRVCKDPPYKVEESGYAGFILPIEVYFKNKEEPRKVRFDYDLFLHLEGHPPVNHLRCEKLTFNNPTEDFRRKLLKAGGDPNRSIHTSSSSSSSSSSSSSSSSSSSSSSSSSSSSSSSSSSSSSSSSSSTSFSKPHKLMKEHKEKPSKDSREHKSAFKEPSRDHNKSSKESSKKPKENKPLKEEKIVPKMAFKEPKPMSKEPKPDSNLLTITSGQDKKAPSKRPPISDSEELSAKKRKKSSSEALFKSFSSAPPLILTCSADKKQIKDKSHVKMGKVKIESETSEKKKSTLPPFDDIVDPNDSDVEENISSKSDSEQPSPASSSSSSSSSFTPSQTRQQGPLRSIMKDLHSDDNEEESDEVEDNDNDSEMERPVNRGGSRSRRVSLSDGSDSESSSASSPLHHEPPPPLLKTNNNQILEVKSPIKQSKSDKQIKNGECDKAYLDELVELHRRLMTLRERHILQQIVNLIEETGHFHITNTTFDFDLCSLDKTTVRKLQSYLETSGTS
Ecoli rRNA inh: inhibits bacterial ribosomal RNA function over humanized ribosomes; E. coli WT GFP vs humanized-ribosome RFP mutants, fluorescence, 24 h; hits give low values; DMSO median 0, no signal -100; GFP signal change (wild-type ribosome), % (no concentration beside the values); hit rate 1.6% among 350,000;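 active means significant combined selectivity score with lowered wild-type GFP, culture density cut under 30%, mutant RFP and density less affected; inactive means any of these conditions unmet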; further: one replicate is shown; some compounds called inactive have numbers as strong as hits
T cruzi inh: blocks replication of Trypanosoma cruzi. T. cruzi beta-gal in NIH3T3, luminescence, 90 h. inhibition, % (test concentration not listed). hit rate 1.4% among 300,000. AID 1885;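 active means mean inhibition across valid replicates above about 55%, limit read from the data; inconclusive means mean below that limit but half or more replicates reach it; inactive means mean below it, under half of replicates reach it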;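 further: signal also drops with host cell toxicity which is not excluded here; 0% = plate median of DMSO wells and 100% = zero luminescence signal; higher percent means less beta-gal luminescence so fewer parasites; stock transfer was 50 nL into about 50 µL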
UCH37 DUB inh: inhibitors of human deubiquitinating enzyme UCH37; Q9Y5K5; purified proteasome/UCH37, Ub-AMC cleavage fluorescence; inhibition, % (test concentration not listed); hit rate 0.33% among 330,000; AID 588478;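 active means mean of two replicates above 20%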;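 further: 0% = compound-free wells with enzyme and 100% = wells lacking proteasome; stock transfer was 100 nL into about 20 µL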
Target sequence (Q9Y5K5 whole entry, looked up): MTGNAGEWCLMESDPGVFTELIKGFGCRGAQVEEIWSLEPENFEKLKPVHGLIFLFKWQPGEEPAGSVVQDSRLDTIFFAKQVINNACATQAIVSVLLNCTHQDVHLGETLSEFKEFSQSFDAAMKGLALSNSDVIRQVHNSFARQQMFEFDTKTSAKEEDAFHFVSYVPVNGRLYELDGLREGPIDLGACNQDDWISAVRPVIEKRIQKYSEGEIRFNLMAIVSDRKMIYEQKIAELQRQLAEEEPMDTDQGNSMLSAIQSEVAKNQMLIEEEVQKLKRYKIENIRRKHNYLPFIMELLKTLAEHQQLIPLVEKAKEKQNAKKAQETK
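Material: Human UCH37 enzyme supplied as purified proteasome complex | Schedule: 30 min preincubation with enzyme, 25 min cleavage at room temperature | Detection: AMC fluorescence 355/460 nm | Measure: % inhibition of Ub-AMC cleavage fluorescence | Controls: Wells without proteasome as full block, compound-free enzyme plus substrate as uninhibited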
Bfl-1 A1 inh: inhibitors of the anti-apoptotic protein A1, read as caspase activation. MEF A1-2A-BIM cells, Caspase-Glo 3/7 luminescence, 3 h; percent of clofoctol response, vehicle zero. caspase activation, % (test concentration not listed). hit rate 0.066% among 330,000;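 active means over half of replicate activation scores above 10%, or exactly half above 10 with the replicate mean above 10; inconclusive means replicate mean below 10 yet half the replicates above 10; inactive means over half of replicates below 10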;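 further: wells of about 30 µL received 50 nL stock; many hits fall short of the cut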
E coli growth: inhibitors of Escherichia coli growth | OD600, 23 h; hits give low values | OD600 absorbance (test concentration not listed) | AID 1053175 | hit rate 0.21% among 330,000;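 active means OD600 absorbance below the run mean of sample wells minus 3.6 SD, in any replicate, cut at about 0.56 in these data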;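 further: stock transfer was 300 nL into about 60 µL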
FGF22 binding: binders of recombinant human FGF22 by thermal shift; hit rate 1.5% among 340,000; AID 651658; calls only at 9.99 µM; SYPRO orange fluorescence; percent of sucrose octasulfate shift, DMSO zero;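 active means melting point raised past a set limit in the mean and every replicate; inconclusive means no clear call; three in four hits are not shown here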
Target sequence (Q9HCT0 whole entry, looked up): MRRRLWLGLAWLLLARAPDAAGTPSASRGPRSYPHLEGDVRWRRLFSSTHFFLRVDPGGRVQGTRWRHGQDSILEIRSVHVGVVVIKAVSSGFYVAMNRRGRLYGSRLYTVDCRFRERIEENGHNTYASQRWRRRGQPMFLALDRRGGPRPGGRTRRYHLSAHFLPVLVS
Beta apoptosis: blocks beta cell apoptosis; hit rate 0.8% among 300,000; protection from apoptosis, % (no concentration beside the values); INS-1E cytokine-induced death, ATP luminescence, 48 h; percent of positive-control rescue, neutral wells zero;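 active means all replicates at 75% or more, or half of them and the mean; inconclusive means half reach 75% but not the mean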;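 further: 0% = cytokine-treated negative control wells and 100% = positive control rescue; higher means more ATP so stronger rescue from cytokine killing; wells of about 40 µL received 100 nL stock; the first replicate is given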
Ecoli rRNA inh OD600: recorded beside Ecoli rRNA inh, whose call it bears; OD600 change, %; measured here: OD600 growth;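 optical density of the mix in the first replicate; 0 = DMSO median and -100 = no signal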
Ecoli rRNA inh RFP: second read-out of Ecoli rRNA inh, no call of its own (marks repeat the call); RFP signal change, %; measured here: RFP humanized mutant strains;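 first replicate; 0 = DMSO median and -100 = no signal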
Active calls of the source: *; i = inactive; ? = inconclusive; / = no result given; + = active, no number; & = joins results of further samples. Only part of the results is shown; rates above refer to the full screens.

SMILES	MLL AF4-AF9 inh	Ecoli rRNA inh	Ecoli rRNA inh OD600	Ecoli rRNA inh RFP	T cruzi inh	UCH37 DUB inh	Bfl-1 A1 inh	E coli growth	FGF22 binding	Beta apoptosis
C#CCSc1nnnn1-c1ccc(Br)c(C)c1	-0.5	1	-4	3.0	-2	/	-1.2	/	i	-9
N#Cc1ccc(C(=O)OCC(=O)Nc2ccc(S(N)(=O)=O)cc2)cc1	-1.2	3	2	-1.6	24	-0.9	-0.8	0.69	i	-14
CCOC(=O)CN(Cc1sccc1C)C(=O)Nc1ccc(OCC)cc1	/	/	/	/	20	1.5	-0.2	0.68	/	-3
COc1cccc(/C=C/C(=O)OCCN2C(=O)c3ccccc3C2=O)c1	-1.5	-17	-40	-6.6	-31	5.3	0.1	0.67	i	-4
COc1ccc(S(=O)(=O)N2CCOCC2)cc1NC(=O)C1CC1	1.2	1	7	2.9	/	-0.5	0.7	0.63	i	-12
O=C(NCCC1=CCCCC1)c1cnsn1	/	/	/	/	-20	5.3	-0.2	0.74	/	2
Cc1ccccc1-c1nn(-c2ccc(F)cc2F)cc1CNCCCO	0.9	12	5	4.2	-19	4.2	0.6	0.65	i	/
CCOc1ccc(Oc2ccc(S(=O)(=O)N3CCOCC3)cc2N)cc1	-12	-8	-3	-1.8	-8	0.9	-0.1	0.7	i	9
CCCC(=O)N(c1ccc(F)cc1)C1C=CS(=O)(=O)C1 (centres undefined)	-19	14	13	12	13	2.3	0.1	0.68	i	-1
Cc1noc(NS(=O)(=O)c2ccc(NC(=O)c3cnc4n(c3=O)CCS4)cc2)c1C	/	/	/	/	2	11	-0.8	0.66	/	-1
CC(=O)Nc1ccc(NC(=O)C(Cc2ccccc2)NC(=O)C2CCCCC2)cc1 (centres undefined)	/	/	/	/	-1	3.7	0.8	0.72	/	-4
Cc1cc(NC(=O)CN2C(=O)/C(=C/c3ccccc3F)SC2=S)no1	0.8	15	15	5.4	-9	6.6	-0.4	0.74	i	-1
COc1cccc(C(=O)Nc2nnc(C3CCCO3)s2)c1 (centres undefined)	/	/	/	/	5	1.8	-0.9	0.69	/	-1
O=C(Nc1ccnn1C1CCN(Cc2ccc(CO)o2)CC1)c1ccccc1	-1.4	10	11	1.7	0	3.7	1.4	0.66	i	1
COc1cc(C2C(C#N)=C(C)NC3=C2C(=O)CC(C)(C)C3)ccc1O (centres undefined)	/	/	/	/	2	-0.7	1.5	0.63	/	2
C/C(=N\NC(=O)c1ccco1)c1ccc(C(=O)O)s1	-0.9	11	15	-0.5	5	/	1.3	/	i	-2
Cc1cc(OC(=O)c2ccc(OC(C)C)cc2)c([N+](=O)[O-])c(=O)[nH]1	1.1	5	7	3.8	-20	7.3	0.3	0.74	i	5
CC(=O)c1c(C)[nH]c(=S)c(C#N)c1-c1ccc(F)cc1	-6.5	5	-1	2.2	-8	9.8	-0.4	0.67	i	4
Cc1cn(-c2cc(C(=O)Nc3ccc(C)c(NC(=O)N4CCNC4=O)c3)cc(C(F)(F)F)c2)cn1	-2.9&1.8	-7&6	8&-3	3.0&0.8	-20	1.1	?	0.73	i	0
CCOC(=O)c1sc(NC(=O)CSC(=S)N2CCOCC2)nc1C	0.6	/	/	/	3	4.1	1.7	0.68	i	/
Cc1cc(-c2ccccc2)c2c3c(cn2n1)c(=O)n(C)c(=O)n3C	/	/	/	/	8	4.2	0.1	0.67	/	9
O=C(NCCCN1CCCC1)c1ccc(CS(=O)(=O)c2c(Cl)cccc2Cl)o1	7.2	5	-1	0.4	12	1.9	0.5	0.65	i	2
N#CC(C#N)=C1NC(N)=C(C#N)C(c2ccccc2)=C1C#N	-3.5	4	10	1.5	-8	/	0.4	/	+	/
O=C(NNC1=Nc2cccc3cccc1c23)c1ccccc1Br	/	/	/	/	-1	-0.1	-1.1	0.7	/	8
CCOc1ccc(C(=O)NCC(c2cccs2)N(C)C)cc1 (centres undefined)	-2.8	-3	-1	-1.9	-9	0.9	?	0.69	i	2
CN(CCOc1ccccc1)CCOc1ccccc1	-5.6	2	-6	0.7	17	0.4	-0.2	0.64	i	4
CCOC(=O)C1CCCN(C(=O)c2cn(C)c3ccc(S(=O)(=O)N4CCCC4)cc3c2=O)C1 (centres undefined)	/	/	/	/	/	4.7	0.8	0.68	/	-3
S=c1nc[nH]c2c1sc1nc(N3CCOCC3)c3c(c12)CCCC3	-3.5	-2	0	2.6	14	0.6	0.7	0.73	/	25
Cc1ccccc1OCC(O)CN (centres undefined)	/	/	/	/	-2	1.9	0.3	0.7	/	-4
CCCS(=O)(=O)N1CCN(C2Cc3ccccc3C2)CC1	4.3	-3	-1	-3.0	-1	2.1	-0.5	0.67	i	-4
Cc1ccc(/C=N\NC(=O)c2cncc(Br)c2)o1	-3.0	12	12	11	6	/	-0.7	/	i	-2
S=C(NCc1ccccc1)Nc1cccc2cnccc12	3.2	14	3	8.0	-5	0.2	1.0	0.66	i	33
O=[N+]([O-])c1cc(/C=N/Nc2nc(N3CCOCC3)nc(N3CCOCC3)n2)ccc1Cl	-1.5	11	10	-1.8	8	/	0.3	/	i	-1
Cc1ccc(S(=O)(=O)N2CCCCC2)cc1NC(=O)c1ccc2c(=O)n3c(nc2c1)CCCCC3	3.1	-12	-18	-0.1	19	1.9	0.4	0.64	i	4
Cc1ccc(-n2c(N)cc(=O)nc2SCC(=O)NC2CCCCC2)cc1C	-0.9	/	/	/	-2	-0.3	0.1	0.67	i	-1
CC(=O)N1CCC2(CC1)NC(=O)N(c1ccccc1)N2	-1.2	21	-2	-3.4	-11	3.3	1.4	0.73	i	-3
CCOc1cc(C(=O)CCC(=O)OCC(=O)NC(=O)NCC(C)C)ccc1O	-2.1	-5	-8	0.6	-9	2.8	-0.2	0.73	i	-9
C(=N/N1CCN(c2ccccc2)CC1)/c1cccs1	8.3	10	14	-6.2	/	/	-0.3	/	i	-4
CC(=O)NC(C)c1nc2ccccc2n1CC(=O)NC(C)CCc1ccccc1 (centres undefined)	-0.3	-2	-10	1.5	-8	2.7	0.9	0.72	i	-2
CCn1c(C)nc2cc(C(=O)NNC(=O)[C@@H](NC(=O)c3cc(OC)cc(OC)c3)C(C)C)ccc21	-6.1	3	10	-0.4	/	2.8	-0.3	0.69	i	1
CCOC(=O)C1=C(COC(=O)Cc2ccc(OC)c(OC)c2)NC(=O)NC1C (centres undefined)	-1.7	10	1	0.7	/	-0.2	-0.6	0.64	i	-1
COc1ccc2nc(NC(=O)CSCC(=O)Nc3cc(C)on3)sc2c1	-42	6	8	0.5	-2	1.6	-1.0	0.69	i	9
O=S(=O)(N=S(N1CCCCC1)N1CCCCC1)c1ccccc1	/	/	/	/	-2	-1.5	0.4	0.7	/	-3
CC(=O)C(C(C)=O)C(c1ccccc1)c1nc2ccccc2[nH]c1=O (centres undefined)	1.9	11	15	-1.5	-5	-3.5	-0.1	0.7	i	6
Cc1cccc(-n2c3nc(=O)[nH]c(=O)c-3cc3c(C)nn(-c4ccccc4)c32)c1C	/	/	/	/	-6	i	0.3	0.65	/	3
c1ccc(Nc2nc(-c3ccncc3)cs2)cc1	/	/	/	/	65*	-6.1	-7.1	0.74	/	-10
CCCn1cnc2c(SCc3ccccc3)nc(N)nc21	0.4	-6	-20	-8.3	/	3.7	/	0.68	i	/
COc1cccc(/C=N/Nc2c(Cl)cncc2Cl)c1O	3.9	-4	-24	-4.6	14	/	-4.7	/	i	-7
CN(C)c1nc(SCc2ccc(Cl)cc2)nc2c1CCCC2	/	/	/	/	20	-0.2	0.8	0.68	/	18
CC(=O)c1ccc(N2CCN(C(=O)c3ccc4ccccc4n3)CC2)cc1	-3.1	7	14	-0.1	0	5.5	-0.9	0.67	i	-3
Cc1ccc(NC(=O)CCc2nc3ccccc3c(=O)[nH]2)cc1S(=O)(=O)N1CCOCC1	?	-1	3	0.9	0	5.8	0.6	0.62	i	-4
Fc1cccc(NC(=S)NCC(c2cccnc2)N2CCOCC2)c1 (centres undefined)	/	/	/	/	-6	-0.3	1.1	0.68	/	-1
CCN1CC(CNCc2cn(-c3ccc(OC)cc3)nc2-c2ccccc2Cl)CC1=O (centres undefined)	6.5	-8	5	2.8	-2	5.6	0.3	0.7	i	-3
CC1=C(C(=O)OCc2ccccc2)C(c2ccc3c(c2)OCO3)NC(=O)N1CCCC(=O)O (centres undefined)	4.4	-1	-1	-0.3	5	1.4	-0.4	0.69	i	-6
CCc1ccc(N(CC)c2ncnc3nc[nH]c23)cc1	-4.3	-12	-28	-4.7	-18	5.2	-0.1	0.67	i	/
COc1ccc(CCc2ccc3cc(OC)ccc3n2)cc1	-2.0	-16	-28	-3.5	/	0.4	/	0.63	i	/
Cc1nc2ccccc2c(-c2ccccc2)c1C(=O)c1ccccc1	/	/	/	/	2	0.1	1.0	0.72	/	2
O=C(COc1ccc2c(-c3ccccc3)cc(=O)oc2c1)NCC(O)c1ccccc1 (centres undefined)	-3.3	/	/	/	10	-40	0.9	0.72	i	/
CNS(=O)(=O)c1cccc(C(=O)OC2CCOC2=O)c1 (centres undefined)	4.6	3	11	1.6	-3	3.7	0.3	0.7	i	-1
CN(C)CCC(O)c1ccccc1 (centres undefined)	/	0	-8	0.5	-7	1.2	0.8	0.7	i	0

The list goes on.
SMILES	MLL AF4-AF9 inh	Ecoli rRNA inh	Ecoli rRNA inh OD600	Ecoli rRNA inh RFP	T cruzi inh	UCH37 DUB inh	Bfl-1 A1 inh	E coli growth	FGF22 binding	Beta apoptosis
O=C(NCc1cccs1)C1CC(=O)N(Cc2ccccc2)C1 (centres undefined)	-0.3	6	8	2.1	/	1.4	1.3	0.66	i	-4
COc1ccc(C2=NN(C(=O)COC(=O)c3ccc(S(C)(=O)=O)c([N+](=O)[O-])c3)C(c3ccco3)C2)cc1 (centres undefined)	1.6	-5	8	8.7	/	/	0.3	/	i	-11
Cc1ccc(OCc2nnc(SCC(=O)Nc3sc(C)c(C)c3C#N)n2C)cc1	/	/	/	/	10	3.5	1.6	0.72	/	-7
N#Cc1ccc(C(=O)NC(=S)N2CCOCC2)cc1	-1.6	14	1	0.4	/	/	0.7	/	i	-4
O=C(OCc1ccccc1)/C(=C/c1cccc(Br)c1)NC(=O)c1ccco1	3.2	-29*	-24*	-9.5*	9	2.8	0.0	0.69	i	0
CC1(C)Nc2cccc3cccc(c23)N1	2.4	2	23	-0.4	/	-306	/	0.67	i	/
CC(C)N(C(=O)CSc1nc2ccccc2c(=O)[nH]1)C(C)C	4.0	0	-7	0.1	-2	2.0	0.0	0.73	i	-2
CC(C)(C)OC(=O)N1CCC(C(=O)N2CCC[C@H]2C(=O)O)CC1	/	/	/	/	-1	4.3	0.9	0.68	/	0
